# FGF22 binding – FGF22 (human) thermal shift binding | Q9HCT0 | recombinant FGF22 thermal shift, SYPRO orange fluorescence; percent of sucrose octasulfate shift, DMSO zero | calls only at 9.99 µM | hit rate 1.5% among 340,000 | AID 651658;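 active = melting point raised past a set limit in the mean and every replicate; inconclusive = no clear call; three in four hits are not shown here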
# Target sequence (Q9HCT0 whole entry, looked up): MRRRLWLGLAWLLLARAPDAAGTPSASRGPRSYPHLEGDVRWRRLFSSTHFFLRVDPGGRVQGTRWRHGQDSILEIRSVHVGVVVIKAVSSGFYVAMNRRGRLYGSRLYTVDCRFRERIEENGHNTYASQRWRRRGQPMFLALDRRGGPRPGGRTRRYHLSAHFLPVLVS
# MLL AF4-AF9 inh – MLL-AF4/AF9 protein interaction inhibition. hit rate 0.47% among 350,000. P42568. inhibition, % at 10 µM. AlphaScreen, biotin-AF4 peptide binding to FLAG-AF9;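 active = every replicate reaching a set inhibition limit, whatever the replicate mean, cut at about 25% in these data; inconclusive = mean inhibition reaches that limit but some replicates miss it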;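 also: 0% = plate neutral control median and 100% = total signal loss; the record names both 10 and 1 µM as test concentration; the first replicate is given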
# ALR H2O2 inh – blocks human ALR sulfhydryl oxidase activity | hit rate 3.8% among 290,000 | inhibition, % (concentration not given with the values) | purified ALR, DTT oxidation, H2O2 HRP-luminol luminescence | P55789;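 active = mean and each replicate at 75% or more; inconclusive = only one of the two met; inactive = neither met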;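 also: stock transfer was 7.5 nL into about 7.5 µL; 0% = neutral wells and 100% = wells with inactivated enzyme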
# Target sequence (P55789 whole entry, looked up): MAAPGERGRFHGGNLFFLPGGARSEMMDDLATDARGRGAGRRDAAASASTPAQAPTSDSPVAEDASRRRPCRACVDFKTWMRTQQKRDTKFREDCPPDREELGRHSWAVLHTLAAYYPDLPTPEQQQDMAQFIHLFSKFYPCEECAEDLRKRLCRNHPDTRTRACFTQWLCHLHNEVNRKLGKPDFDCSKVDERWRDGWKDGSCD
# HNF4A DNA FP – change in binding of human HNF4 alpha to DNA; activity change, % at 10 µM; P41235; hit rate 0.3% among 360,000; HNF4a-FITC DNA binding, fluorescence polarization, 1 h; in the data active = activity change above about 30%, passing the limit was not always enough;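 also: controls were the assay level and a saturating level of protein; the project sought stronger binding though the title names inhibitors; some compounds called inactive have numbers as strong as hits; positive values seem to mean higher polarization but the record does not say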
# Target sequence (P41235 whole entry, looked up): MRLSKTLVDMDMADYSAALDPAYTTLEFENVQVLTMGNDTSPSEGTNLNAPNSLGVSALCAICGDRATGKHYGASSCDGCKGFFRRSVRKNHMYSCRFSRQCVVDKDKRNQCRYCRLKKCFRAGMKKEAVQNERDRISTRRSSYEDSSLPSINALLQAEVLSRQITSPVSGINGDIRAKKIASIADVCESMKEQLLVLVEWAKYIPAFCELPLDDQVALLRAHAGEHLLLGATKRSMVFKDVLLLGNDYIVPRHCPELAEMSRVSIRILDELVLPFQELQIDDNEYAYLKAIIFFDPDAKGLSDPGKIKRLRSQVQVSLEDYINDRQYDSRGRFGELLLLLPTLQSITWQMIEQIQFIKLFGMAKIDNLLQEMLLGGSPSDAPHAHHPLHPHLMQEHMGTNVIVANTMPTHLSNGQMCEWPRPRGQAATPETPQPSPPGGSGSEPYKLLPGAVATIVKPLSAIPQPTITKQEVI
# rRNA inh HTS – inhibitors of bacterial rRNA selective over humanized ribosomes. E. coli WT GFP vs humanized-ribosome RFP mutants, fluorescence, 24 h; active compounds read low; DMSO median 0, no signal -100. GFP signal change (wild-type ribosome), % (concentration not given with the values). hit rate 1.6% among 350,000;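 active = significant combined selectivity score with lowered wild-type GFP, culture density cut under 30%, mutant RFP and density less affected; inactive = any of these conditions unmet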; also: one replicate is shown; some compounds called inactive have numbers as strong as hits
# Ecoli growth – inhibitors of Escherichia coli growth; AID 1053175; hit rate 0.21% among 330,000; OD600, 23 h; active compounds read low; OD600 absorbance (concentration not given with the values);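 active = OD600 absorbance below the run mean of sample wells minus 3.6 SD, in any replicate, cut at about 0.56 in these data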;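 also: stock transfer was 300 nL into about 60 µL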
# Vif A3G – inhibitors of Vif binding to APOBEC3G peptide, primary screen, biochemical, TR-FRET, GST-Vif 1-94, biotin-A3G peptide, dose response retest (AID 1117319). TR-FRET GST-Vif / biotin-A3G peptide binding; higher % means a stronger effect; test concentration not given here; strong numbers were not always called active. inhibition, %; hits with a dose series show IC50 in µM. hit rate 0.57% among 260,000;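 active = above the screen mean plus three standard deviations and confirmed in dose response; inconclusive = results disagree or hit not tested in dose response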;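 also: Vif residues 1-94 fused to GST binding biotinylated APOBEC3G peptide 110-148; 0% = full assay without inhibitor and 100% = GST in place of GST-Vif; retest series ran down from 100 µM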
# rRNA inh HTS OD600 – also measured in rRNA inh HTS; calls as there; OD600 change, %; measured here: OD600 growth;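 optical density of the mix in the first replicate; 0 = DMSO median and -100 = no signal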
# rRNA inh HTS RFP – recorded beside rRNA inh HTS, whose call it bears; RFP signal change, %; measured here: RFP humanized mutant strains;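 first replicate; 0 = DMSO median and -100 = no signal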
# Active calls of the source: *; i = inactive; ? = inconclusive; · = no result given. Only part of the results is shown; rates above refer to the full screens.
entry	SMILES	FGF22 binding	MLL AF4-AF9 inh	ALR H2O2 inh	HNF4A DNA FP	rRNA inh HTS	rRNA inh HTS OD600	rRNA inh HTS RFP	Ecoli growth	Vif A3G
1	Cc1ccc(C(C(=O)NC(C)(C)C)N(C(=O)c2csnn2)c2cccc(F)c2)o1 (centres undefined)	·	·	·	2.5	·	·	·	0.72	-5%
2	Cc1c(C(=O)OC(C)C)sc(N)c1C(=O)OC(C)C	i	-2.1	0	2.2	-11	-11	-8.4	0.71	-12%
3	COc1cc(NC(=O)C(c2ccccc2)c2ccccc2)c(C(=O)O)cc1OC	i	-1.5	92*	-3.5	-24*	-9.4*	-5.7*	0.68	·
4	COc1ccc(-n2nc([N+](=O)[O-])c(=NCCc3ccccc3)n2O)cc1	i	9.9	-11	2.1	-14	-39	8.9	0.72	2%
5	CCN(CC)S(=O)(=O)c1ccc(OC)c(NC(=S)Nc2cccc(C)c2C)c1	·	·	6	-1.3	·	·	·	0.69	9%
6	O=C(O)C1C2C=CC(C2)C1C(=O)Nc1ccc2c(c1)OCCO2 (centres undefined)	·	·	-29	0.5	·	·	·	0.65	3%
7	O=C(CNC(=O)c1ccco1)OCC(=O)c1ccc2c(c1)CCCC2	·	·	·	-3.0	·	·	·	0.64	3%
8	O=C(O)c1c(F)c(F)c(F)c(F)c1-c1ccc(Cl)cc1	i	3.9	-1	-0.3	-4	6	-2.9	0.69	-3%
9	Cc1ccc(CCNC(=O)C2CCC(CNc3c(N4CCC(C)CC4)c(=O)c3=O)CC2)cc1 (centres undefined)	i	1.6	·	-1.8	-3	-11	0.7	0.75	6%
10	CC(=O)C1C(c2ccc(Br)cc2)C2C(C)=NN=C2CC1(C)O (centres undefined)	i	-0.5	-23	0.2	2	-9	0.7	0.72	0%
11	Cc1ccc(C(=O)N2CCN3C(=O)c4ccccc4C23c2ccc(Cl)cc2)cc1 (centres undefined)	·	·	-23	-0.1	·	·	·	0.79	-3%
12	CCCCC(=O)Nc1ccc2oc(-c3ccncc3)nc2c1	·	·	·	0.7	·	·	·	0.67	17%
13	Cc1cc(OCC(=O)NCCCn2ccnc2)c2c(C)cc(=O)oc2c1	i	-0.3	-1	2.3	-6	4	-3.4	0.69	·
14	CC1=C(C(=O)N2CCCCC2)C(c2cccs2)NC(=O)N1 (centres undefined)	·	·	3	-0.4	·	·	·	0.7	21%
15	O=C(CNC(=O)c1ccccc1Br)NNC(=O)c1cccs1	i	-5.0	·	-1.3	-4	2	-0.9	0.67	-3%
16	N#Cc1ccccc1S(=O)(=O)N1CCN(C(=O)c2cc(-c3ccccc3)nn2-c2ccccc2)CC1	i	-0.2	-15	-2.5	3	10	1.3	0.72	-9%
17	CC(OC(=O)c1ccc(NC(=O)CC#N)cc1)C(=O)Nc1ccc2c(c1)OCCO2 (centres undefined)	i	11	97*	6.7	6	5	16	0.71	-2%
18	CCN(CC)C(=S)Oc1c(Cl)cccc1Cl	i	-5.4	·	1.1	-1	0	-0.1	0.67	6%
19	C[C@@H]1CN([C@@H](C)CO)C(=O)c2cc(Br)cnc2O[C@@H]1CN(C)C(=O)Nc1ccccc1	i	-2.9	·	·	5	3	-1.4	·	·
20	NC(=O)c1ccccc1NC(=O)/C=C/c1c(Cl)cccc1Cl	·	·	-4	-1.5	·	·	·	0.73	16%
21	O=C(CC12CC3CC(CC(C3)C1)C2)Nc1ccc(C(=O)O)cc1	i	1.8	1	0.5	0	-2	-1.1	0.71	·
22	CO[C@H]1CN(C)C(=O)c2ccc(NC(=O)C3CC3)cc2OC[C@@H](C)N(C(=O)NC(C)C)C[C@H]1C	i	0.3	·	·	4	8	-0.6	·	·
23	CC(=O)Nc1ccc(NC(=O)C(C)Sc2nc3ccccc3c(=O)n2Cc2ccco2)cc1 (centres undefined)	·	-7.4	-2	0.6	1	6	-0.5	0.72	5%
24	Cc1cccc(NC(=O)c2ccc(COc3ccccc3)o2)n1	i	-0.4	1	-4.2	-19	-18	1.4	0.69	·
25	CCCNC(=O)N(C)C[C@H]1Oc2cc(C#Cc3cccc(F)c3)ccc2S(=O)(=O)N([C@H](C)CO)C[C@@H]1C	i	-5.1	·	·	-10	-30	22	·	·
26	Cc1cccc(N/C=C/C(=O)c2cccs2)c1C	·	·	-3	5.2	·	·	·	0.7	·
27	CCOC(=O)c1[nH]c2ccc(OC)cc2c1NC(=O)/C=C/c1ccc2c(c1)OCO2	·	·	-2	-0.5	·	·	·	0.68	·
28	COc1ccc(C(CC(=O)c2ccccc2)S(=O)(=O)c2ccc(C)cc2)cc1 (centres undefined)	·	·	7	-0.4	·	·	·	0.68	5%
29	CC(O)(c1ccccc1)C(C(c1ccccc1)N1CCOCC1)N1CCOCC1 (centres undefined)	i	-0.4	·	-2.0	12	5	6.0	0.67	0%
30	O=C(Nc1ccc(F)cc1)Nc1ccc(S(=O)(=O)N2CCCC2)cc1	i	-0.2	11	7.0	-43	-63	-12	0.57	·
31	CCCCn1c(N)c(N(CCC(C)C)C(=O)CSc2nc3ccccc3n2C)c(=O)[nH]c1=O	i	-4.2	·	4.5	3	11	-0.8	0.68	·
32	Cc1cc(C)nc(NN=C(c2ccccc2)c2ccccc2)n1	i	7.8	·	2.4	-9	0	-0.3	0.63	-1%
33	CC1CCN(C(=O)CSc2nc3ccccc3c(=O)[nH]2)CC1	i	-0.8	0	-0.2	3	1	3.3	0.7	28%
34	O=C(COc1ccc(/C=N/NC(=O)c2cc3ccccc3o2)cc1Cl)Nc1ccccc1	·	·	0	45*	·	·	·	·	-6%
35	c1ccc(COc2ccc(OCCCN3CCCCC3)cc2)cc1	·	·	-2	1.2	·	·	·	0.68	7%
36	CC(Cc1cccs1)NC(=O)Nc1ccc(Cl)c(Cl)c1 (centres undefined)	·	·	·	-0.8	·	·	·	0.64	17%
37	Cc1ccc2cccc(NC(=O)c3ccc(Br)o3)c2n1	·	·	-61	-2.5	·	·	·	0.76	6%
38	CCc1cccc(N(C(=O)c2csnn2)C(C(=O)NC(C)(C)CC)c2ccccn2)c1 (centres undefined)	i	-1.3	·	-2.5	11	-3	-0.6	0.67	14%
39	Cc1[nH]nc2c1C(c1ccc(-c3ccc(Cl)cc3)o1)C(C#N)=C(N)O2 (centres undefined)	·	·	24	3.2	·	·	·	0.64	·
40	CCOc1ccc(NC(=S)N2CCC(N(C)CC3CCCO3)CC2)cc1 (centres undefined)	·	·	2	0.1	·	·	·	0.69	·
41	Cc1occc1-c1nnc(SCC(=O)NCCc2ccccc2)n1Cc1ccccc1	·	·	-9	6.4	·	·	·	0.75	?
42	Cc1noc(C)c1NC(=O)Nc1ccc2c(c1)CC(=O)N([C@@H](C)CO)C[C@@H](C)[C@H](CN(C)C(=O)Nc1ccc3c(c1)OCO3)O2	i	2.6	·	·	3	4	1.1	·	·
43	CCC(=O)N1CCc2cc(S(=O)(=O)NC(C(=O)N3CCN(c4ccc(F)cc4)CC3)C(C)C)ccc21 (centres undefined)	i	-0.3	-1	0.0	0	-3	-2.9	·	·
44	CCC(=O)Nc1ccc(NC(=O)c2cc3ccccc3o2)cc1	·	·	-1	-2.2	·	·	·	0.75	6%
45	COC(=O)C(C)N(c1ccc(C)cc1)S(=O)(=O)c1c(C)[nH]c(=O)[nH]c1=O (centres undefined)	i	-11	-4	-3.7	3	3	0.8	0.65	5%
46	C[C@@H]1CN([C@@H](C)CO)C(=O)c2cc(NC(=O)Nc3ccccc3)ccc2O[C@@H]1CN(C)Cc1ccc(C(=O)Nc2ccccc2N)cc1	i	-1.4	·	·	-11	-16	13	·	·
47	C[C@H](CO)N1C[C@H](C)[C@H](CN(C)Cc2ccc(Oc3ccccc3)cc2)Oc2ccc(NS(=O)(=O)c3cccs3)cc2CC1=O	i	0.8	·	·	3	2	1.2	·	·
48	COc1ccc(-c2csc(-c3cccs3)n2)cc1OC	i	20	1	-4.6	-2	-10	8.6	0.7	-3%
49	Cc1cc(=O)[nH]c(N/N=C/c2c[nH]c3ccccc23)n1	i	-0.8	92*	2.8	1	10	1.2	·	4%
50	Cc1ccc2nc3ccc(N4CCCCCCC4)nn3c(=O)c2c1	·	·	-2	-1.3	·	·	·	0.71	2%
51	Cc1cc(NC(=O)CCC(=O)N(c2ccccc2)C(C(=O)NC2CCCC2)c2ccc(F)cc2)no1 (centres undefined)	i	-5.7	·	-1.5	8	13	4.5	0.69	-8%
52	Cc1c(Cl)cccc1-n1c(SCC(=O)NCc2ccccc2Cl)nnc1-c1ccncc1	i	3.9	12	1.5	-7	-14	21	0.67	-1%
53	C[C@@H]1CN([C@H](C)CO)C(=O)Cc2cc(NC(=O)NC3CCCCC3)ccc2O[C@@H]1CN(C)S(C)(=O)=O	i	-3.7	·	·	4	-8	-0.9	·	·
54	Cc1ccc(N2CCN(S(=O)(=O)c3c(C)nc4sccn4c3=O)CC2C)cc1 (centres undefined)	i	9.4	·	1.1	-6	-19	-2.3	·	·
55	Cc1cc(S(=O)(=O)Nc2ccc(C(=O)NCC(c3ccco3)N(C)C)cc2)ccc1F (centres undefined)	i	1.4	-11	-1.0	11	13	1.4	0.68	1%
56	COc1cc(OC)c(C2C(C#N)=C(N)Oc3cc(C)n(CCCN4CCOCC4)c(=O)c32)cc1OC (centres undefined)	·	·	-27	1.3	·	·	·	0.71	17%
57	Cc1nn(-c2ccccc2)c(N2CCCC2)c1/C=C1\N=C(c2ccc(OC(C)C)cc2)OC1=O	·	·	-5	1.1	·	·	·	0.75	-4%
58	O=C(CCN1C(=O)/C(=C/c2ccco2)SC1=S)Nc1ccc(C(=O)O)c(O)c1	i	6.0	·	-22	-2	7	5.7	0.62	·
59	Cc1nc(CN(C)Cc2nc(Cc3ccccc3Cl)no2)cs1	i	1.0	24	0.7	2	2	-0.1	0.7	-2%
60	CN1CCC(N(C)S(=O)(=O)c2ccc(NC(=O)COc3ccc([N+](=O)[O-])cc3)cc2)CC1	i	1.1	·	-2.9	5	12	-1.4	0.62	0%

# Gathered by group, those above with a cyano group.
entry	SMILES	FGF22 binding	MLL AF4-AF9 inh	ALR H2O2 inh	HNF4A DNA FP	rRNA inh HTS	rRNA inh HTS OD600	rRNA inh HTS RFP	Ecoli growth	Vif A3G
16	N#Cc1ccccc1S(=O)(=O)N1CCN(C(=O)c2cc(-c3ccccc3)nn2-c2ccccc2)CC1	i	-0.2	-15	-2.5	3	10	1.3	0.72	-9%
17	CC(OC(=O)c1ccc(NC(=O)CC#N)cc1)C(=O)Nc1ccc2c(c1)OCCO2 (centres undefined)	i	11	97*	6.7	6	5	16	0.71	-2%
39	Cc1[nH]nc2c1C(c1ccc(-c3ccc(Cl)cc3)o1)C(C#N)=C(N)O2 (centres undefined)	·	·	24	3.2	·	·	·	0.64	·
56	COc1cc(OC)c(C2C(C#N)=C(N)Oc3cc(C)n(CCCN4CCOCC4)c(=O)c32)cc1OC (centres undefined)	·	·	-27	1.3	·	·	·	0.71	17%

# Other results follow:
entry	SMILES	FGF22 binding	MLL AF4-AF9 inh	ALR H2O2 inh	HNF4A DNA FP	rRNA inh HTS	rRNA inh HTS OD600	rRNA inh HTS RFP	Ecoli growth	Vif A3G
61	CN(C)c1ccc(/C=N/NC(=O)c2cccc(N3CCCC3=O)c2)cc1	·	·	87*	-3.3	·	·	·	·	8%
62	Cc1noc(C)c1NC(=O)N(C)C[C@H]1Oc2c(NC(=O)C3CCCCC3)cccc2C(=O)N([C@@H](C)CO)C[C@@H]1C	i	-2.9	·	·	4	4	0.5	·	·
63	COC(=O)C1CCN(C(=O)c2cc(OC)c(OC)c(OC)c2)CC1	i	-16	-2	-5.1	14	7	0.9	0.68	-2%
64	CCC(=O)N[C@H]1CC[C@@H](CCNC(=O)Nc2ccc(C(F)(F)F)cc2)O[C@H]1CO	i	-0.3	·	·	-57	-79	-18	·	·
